Screening data (PubChem BioAssay)
D2 agonist – activates the human D2 dopamine receptor; activation, % (no concentration beside the values); DiscoveRx PathHunter D2 beta-arrestin, luminescence, 90 min; 100% = 57 uM dopamine signal; 360,000 tested, 0.084% active; AID 624465; P14416; in the data active = activation above about 40%; inconclusive = about 15% to 40%; inactive = below about 15%; also: compound concentration not given in the record; the text of the record calls up to 30% inactive
Target sequence (P14416 whole entry, looked up): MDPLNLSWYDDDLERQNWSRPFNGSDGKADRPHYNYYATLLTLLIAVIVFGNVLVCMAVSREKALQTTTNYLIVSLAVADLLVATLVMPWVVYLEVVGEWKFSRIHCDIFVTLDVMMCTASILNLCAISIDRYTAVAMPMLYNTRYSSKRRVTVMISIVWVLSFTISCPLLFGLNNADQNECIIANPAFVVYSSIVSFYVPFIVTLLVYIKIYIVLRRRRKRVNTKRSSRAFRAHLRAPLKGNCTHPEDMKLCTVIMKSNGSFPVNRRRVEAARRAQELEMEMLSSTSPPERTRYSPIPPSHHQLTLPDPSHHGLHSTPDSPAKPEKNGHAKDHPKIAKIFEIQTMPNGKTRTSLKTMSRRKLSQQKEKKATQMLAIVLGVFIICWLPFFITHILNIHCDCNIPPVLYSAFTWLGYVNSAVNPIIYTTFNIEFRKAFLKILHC
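DiscoveRx PathHunter D2 beta-arrestin cells (2,100/well) attached overnight, then compound-stimulated 90 min at 37 C in HBSS/10 mM HEPES/0.1% Tween-20 buffer; beta-galactosidase complementation read by luminescence after 1 h at ambient temperature. Dopamine 57 uM final (EC100) as control.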
ClpP mod – qHTS Assay for Activators of ClpP; ATP-dependent Clp protease proteolytic subunit (Bacillus subtilis (strain 168)), P80244; purified B. subtilis ClpP, FRET peptide cleavage, 20 min; Potency, µM (series often up to 57.5 µM), for the others: top-dose activity change, negative = active; 340,000 tested, 1.9% active; active = well fitted falling curve with a large enough effect; inconclusive = small, poorly fitted or top-dose-only effect; inactive = no such curve, though single readings can be large or run the other way; also: potency is read from the fitted curve at half-maximal effect; the source files actives as falling curves though it sought activators and does not explain the sign; nearly all actives have a fitted effect of over 65% in size; many hits overshoot -100%
Target sequence (P80244 whole entry, looked up): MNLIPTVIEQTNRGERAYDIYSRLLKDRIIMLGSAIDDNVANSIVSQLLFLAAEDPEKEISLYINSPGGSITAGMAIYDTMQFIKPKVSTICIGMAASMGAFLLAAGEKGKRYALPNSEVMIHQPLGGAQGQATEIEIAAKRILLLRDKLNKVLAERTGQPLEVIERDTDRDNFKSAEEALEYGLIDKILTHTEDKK
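Purified B. subtilis ClpP, 10 microg/mL final in Tris/HCl pH8 with KCl, BSA, glycerol and Tween-20, cleaved an Abz/nitrotyrosine-quenched decapeptide. Fluorescence (ex 320, em 430) was read at 0 and 20 min at room temperature. Delta was normalized to 5.8 microM ADEP and DMSO/no-enzyme controls.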
Menin MLL FP FL – displaces fluorescein MLL peptide from human menin; AID 1766; Fluorescence polarization, fluorescein-MLL peptide displacement from menin; FP activity change, % at 61.4 µM; 290,000 tested, under 10 active; inconclusive = falling polarisation curve, or a change in total fluorescence; inactive = total fluorescence flat and polarisation flat or rising; no compound was filed as active; the % refers to the polarisation; negative = inhibition;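 also: % of control where 0% means no effect; inhibitors lower the polarisation; unlabelled MLL peptide was the positive control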
gsp agonist – agonists of gsp mutant (McCune-Albright syndrome); gsp mutant cells, cAMP HTRF, 30 min; control for the full effect not named in the record; Potency, µM (top dose mostly 76.9 µM), inactives show at the highest dose activation (cAMP increase), most hits filed as activators; 340,000 tested, 0.13% active; AID 624287; active = well fitted activation curve with a large enough effect; inconclusive = small, poorly fitted or top-dose-only effect, or another doubt; inactive = no such curve, though single readings can be large or run the other way; cell line not stated here;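 also: phosphodiesterase inhibitor Ro 20-1724 added with compounds to block cAMP breakdown; potency is read from the fitted curve at half-maximal effect; nearly all actives have a fitted effect of over 60% in size; about a fifth of the inactives were tested at one dose only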
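Cells stably selected in G418 were plated at 2000/well, grown 16-24 hr, then given compounds in DMSO with the PDE inhibitor […] (300 uM solution added) for 30 min at 37C; cAMP was read by HTRF.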
PINK1 expr mod – changes PINK1 expression; PINK1 immunofluorescence, high-content cytometry, 24 h; 410,000 tested, 0.2% active; Potency, µM (top dose mostly 76.6 µM), for inactives: at the top dose activation (PINK1 increase), usual class: activators; active = well fitted activation curve with a large enough effect; inconclusive = small, poorly fitted or top-dose-only effect; inactive = flat fitted curve, though single readings scatter; cell line not stated here;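 also: potency is read from the fitted curve at half-maximal effect; % of control where 0% means no effect; nearly all actives have a fitted effect of over 65% in size; a mitochondrial uncoupler was the plate control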
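Fluorescence from anti-PINK1 antibody, together with nuclear and cell stains, was scanned on a laser-scanning cytometer. Before staining, stable-line cells were incubated 24 hours with compounds at 5 concentrations; primary antibody 12 h at 10 degrees C.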
gsp antag – gsp mutant antagonism; gsp-mutant cells, cAMP HTRF, 30 min; control for the full effect not named in the record; Potency, µM (doses to about 76.9 µM), without a hit: at the top dose activity change, negative = inhibition, hits mostly inhibitors; 340,000 tested, 0.4% active; AID 624288; active = falling curve of any shape with a large fitted effect; inconclusive = falling curve, mostly with a smaller effect; inactive = flat or rising curve; cell line not stated here;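 also: intracellular cAMP measured with PDE inhibitor Ro 20-1724 present during compound exposure; potency is read from the fitted curve at half-maximal effect; % is scaled to controls: 0 for no effect and ±100 for the full control effect; nearly all actives have a fitted effect of over 65% in size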
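Cells in G418 medium, seeded 16-24 h, 37C; buffer exchange to DPBS + 1 mM CaCl2, 0.5 mM MgCl2, 0.05% BSA; cpds in DMSO + […] (300 uM stock), 30 min 37C; HTRF cAMP detection.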
Sfp PPTase inh – inhibitors of Bacillus subtilis Sfp phosphopantetheinyl transferase | Potency, µM, for the others: max response, negative = inhibition, most hits filed as inhibitors | Q9F4F7 | Biochemical Sfp PPTase activity, qHTS | 310,000 tested, 3.5% active; active = well fitted inhibition curve with a large enough effect; inconclusive = small, poorly fitted or top-dose-only effect, or another doubt; inactive = no such curve, though single readings can be large or run the other way;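 also: the enzyme is Sfp with the accession as filed and its product quenches rhodamine fluorescence; potency is read from the fitted curve at half-maximal effect; 0% = enzyme reaction without inhibitor and -100% = no enzyme wells; top concentration of the series not given in the record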
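After 15 min at room temperature with compound, 15 nM Sfp received 5 uM rhodamine-CoA plus 12.5 uM BHQ-2-ybbR (50 mM Hepes pH 7.6, 10 mM MgCl2). Rate came from the fluorescence difference over 30 min, ex 525/em 598 nm.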
Numbers without * were called inactive; ? = inconclusive; . = not tested or not shown; & = joins results of further samples; [ ] = another dose, or the depositor's remark.

Each structure is followed by: gsp agonist, PINK1 expr mod, ClpP mod, Sfp PPTase inh, gsp antag, Menin MLL FP FL, D2 agonist
O=c1c2c(-c3ccccc3)csc2ncn1/N=C/c1cccc([N+](=O)[O-])c1O
    -4%, -0.9%, -2.1%, 5%, -23%, 4.5, -3.7
COC(=O)c1c(NC(=O)CSc2nnnn2-c2ccccc2)sc2c1CCC(C)C2 (stereo unspecified)
    -1%, 4.9%[38.3 µM], -4.3%, 9%, -7%, 1.5, -2.3
O=c1c2cc(NC(=S)NC3CCCC3)ccc2nc2n1CCCCC2
    -2%[15.4 µM], -2.0%, -2.1%, 26%, -4%, 2.5, -2.6
CCC1(C)Cc2c(sc3nc4n(c(=O)c23)CCCS4)CO1 (stereo unspecified)
    -6%[15.4 µM], 0.5%, 1.7%, ., -9%, ., -8.5
CNc1nc2ccccc2n1CC(=O)c1ccccc1
    10%[15.4 µM], -0.9%, 0.5%, -2%, -15%, -0.9, 3.6
O=C(O)C1=C[C@H](C2CC2)C[C@H](OCCCCO)O1
    10%, -0.6%, 0.5%, 9%, 12%, -4.4, 0.1
CN1c2ccccc2N(C)C1(C)c1ccccc1
    21%, ?, -2.0%, ?, 2%, -2.5, ?
COc1cc([N+](=O)[O-])cc(/C=N/NC(=O)C(C)Nc2ccccc2C)c1O (stereo unspecified)
    -29%, -1.1%, 1.2%, 11%, ?, 16, -4.8
CCOc1ccc2nc(N3C(=O)/C(=C/c4ccccc4)NC3=S)sc2c1
    -10%, ?, -13%, -12%, -13%, 34[activator], -4.5
COc1ccc(C2/C(=C(/O)c3ccc(C)cc3)C(=O)C(=O)N2c2ccccn2)cc1OC (stereo unspecified)
    29%, 2.0%, -0.6%, -16%, -9%, 3.8, -5.0
CC(C)(C)c1ccc(C(=O)N/N=C/c2ccc(OCCCF)cc2)cc1
    -1%[15.4 µM], 6.3%, -1.6%, 24%, -7%, 1.3, 5.1
CCN(Cc1ccccc1)C(=O)c1ccccc1C
    -73%[inhibitor], -1.5%[38.3 µM], -1.2%, 6%, -23%, -4.9, -0.9
O=C(c1ccc(Br)cc1)c1cc2ccc(O)cc2oc1=O
    -7%, 3.2%, ., ?, ?, ?, -5.4
O=C(Cc1ccc(Cl)cc1)NCCc1c[nH]c2ccccc12
    -23%, -2.2%, 0.2%, ., -5%, ., 2.2
C=CCNC(=O)COC(=O)c1cccnc1Nc1ccccc1F
    1%[15.4 µM], -0.6%, ., -3%, -11%, 4.7, -1.8
O=C1c2ccccc2C(Nc2ccc(S(=O)(=O)N3CCOCC3)cc2)N1c1cccnc1 (stereo unspecified)
    20%, 2.0%, 0.5%, 2%, -1%, 1.0, -3.6
Cc1cc(-c2nc3cccnc3s2)ccc1NS(=O)(=O)c1ccc2c(c1)OCCO2
    17%, 0.2%, 4.0%, 3%, -14%, 2.8, 5.3
O=S(=O)(c1cccc(Cl)c1Cl)N1CCCCC1
    ?, 5.8%[38.3 µM], 1.0%, 13%, ?, 0.0, -1.8
COc1cc(NC(=O)CN(c2ccc(C)cc2)S(=O)(=O)c2c(C)nn(C)c2C)cc(OC)c1
    10%, -3.0%, 1.4%, -4%, -23%, -1.3, -0.7
c1nnc(-c2ccc3c(c2)OCO3)o1
    -2%[15.4 µM], 0.5%, ., 12%, 21%, -1.6, 3.7
COc1ccc(/C=C2/N=C(SCC(=O)Nc3cc(C)on3)N(c3ccccc3)C2=O)cc1
    ?, ?, 0.8%, -8%, 17%, 2.3, -0.5
Cc1cccc(C)c1-n1nnnc1C1(Nc2ccccc2)CCCCC1
    -7%, 8.6%, 0.5%, 14%, -17%, 7.3, -4.1
Cc1c(NC(=O)C(C)OC(=O)c2ccc(Cl)nc2)c(=O)n(-c2ccccc2)n1C (stereo unspecified)
    32%, -0.4%, -2.1%, -1%, 7%, -0.7, 0.7
CCCCSc1nnc([C@H](C)NC(=O)OC(C)(C)C)o1
    26%, -0.6%[38.3 µM], -0.2%, 11%, 2%, 2.4, -1.4
O=C(CCc1nnc2ccc(N3CCC4(CC3)OCCO4)nn12)NCc1ccc(F)cc1
    ?, 6.9%, -1.7%, 10%, 3%, -0.7, -4.9
CCCCNC(=O)N1CCN(c2ncccn2)CC1
    ?, 1.0%, 0.9%, 6%, -2%, 5.7, -3.9
Cc1cccc(NC(=O)CNC(=O)[C@H]2O[C@@H](n3cnc4c(N)ncnc43)[C@H](O)[C@@H]2O)c1C
    ., 2.2%, -0.9%, ., ., ., -6.8
O=C1CS/C(=C\S(=O)(=O)c2ccc(Cl)cc2)N1
    20%, -0.4%, 0.7%, 5%, -12%, 7.2, -2.4
COCc1nc2c([nH]1)c(=O)n(C)c(=O)n2CC(C)C
    ., 0.1%, -3.8%, 1%&-13%&15%, 2%, ?, -0.4
COCOc1cccc(CN2CCC2(C)C(=O)Nc2ccc(OC)c(OC)c2)c1 (stereo unspecified)
    ., 0.4%, -3.4%, ., ., ., 0.6
Cc1cccc(OCC(=O)N2CCCc3ccccc32)c1
    -18%, 1.2%, 0.4%, 3%, 4%, -6.0, -4.9
O=C(NCc1ccco1)c1[nH]c(C(F)(F)F)nc1-c1ccccc1
    ., 3.4%, 4.5%, ., ., ., -1.6
O=C(Nc1ncc(Cc2ccc(SC(F)F)cc2)s1)c1ccccc1
    13%, 11%, ?, 8%, 22%, 6.8, 3.0
Cc1cc(C(=O)Nc2ccccc2C(=O)O)ccc1NC(=O)COc1cccc([N+](=O)[O-])c1
    0%, 3.5%, ., -5%, -22%, 1.0, 2.3
Cc1ccc2cc(C)c(NCCO)nc2c1
    0%, -1.5%, ?, 13%, 4%, 4.5, 3.3
COc1ccccc1C(=O)Nn1c(-c2cccs2)nc2ccccc2c1=O
    -4%, -2.5%, -3.6%, 12%, -9%, 8.5, 0.7
S=c1[nH]nc(-c2ccc3c(c2)OCO3)n1-c1ccccc1
    ?, -2.6%, ?, -3%, -5%, -0.7, -3.6
CCOc1ccc(NCc2cccn2-c2nnc(N3CCC(C(=O)NCCCN4CCCCC4CC)CC3)s2)cc1 (stereo unspecified)
    0%, 1.2%, 1.6%, -5%, 4%, -0.3, -0.9
Cc1ccnc(NS(=O)(=O)c2cccc3nsnc23)c1
    -31%[inhibitor], -0.3%, 2.7%, 16%, -14%, 2.9, -1.7
O=C(O)CCC(=O)Nc1nc2ccc([N+](=O)[O-])cc2s1
    ?, -1.2%, 0.7%, -5%, 6%, 0.3, -1.8
CCCCN(C)CCNC(=O)CSCc1ccc(C)cc1
    4%, -0.6%, -0.2%, -13%, 8%, -4.2, -3.5
COc1ccc(C(C(=O)NC(C)(C)C)N(CCC(C)C)C(=O)CCC(=O)Nc2cc(C)on2)cc1 (stereo unspecified)
    -39%[15.4 µM], 1.2%, ., 9%, -4%, -5.1, 1.9
CSCCC1NC(=O)N(CC(=O)Nc2cccc3ccccc23)C1=O (stereo unspecified)
    -2%, 0.2%, -0.8%, 13%, 0%, 0.7, -1.3
CCOC(=O)/C(=N\Nc1ccccc1[N+](=O)[O-])c1csc(Nc2ccccc2)n1
    -1%, 6.0%, -2.2%, 10%, 2%, -1.8, ?
O=C1NC(N2CCOCC2)=N/C1=C/c1ccc2c(c1)OCO2
    -13%[15.4 µM], -2.1%, -1.7%, 12%, -23%, -3.3, 0.7
COc1cccc(C(=O)NCCC(=O)NCc2cc(=O)n(C)c(=O)n2C)c1
    ?, 0.9%, 1.3%, -5%, 11%, -0.8, 0.4
O=c1c2ccccc2c(C=NCc2ccccn2)c(O)n1-c1ccccc1Cl
    17%[15.4 µM], 0.4%, ., -15%, 9%, -2.0, -3.6
COc1ccc(NC(=O)c2cc(-c3cc(F)ccc3OCC3CCCO3)n[nH]2)cc1OC (stereo unspecified)
    ., 0.6%, 0.6%, ., ., ., 13
O=C1CC(Cc2ccc(Cl)cc2)C(=O)N1c1ccncc1 (stereo unspecified)
    -2%, 0.2%, -1.2%, -2%, -4%, 0.0, 1.7
O=C(CCc1ccccc1)Nc1cc(NC(=O)CCc2ccccc2)cc(C(=O)O)c1
    ?, -1.1%, ., 28%, 7%, -5.6, 2.2
Cc1cc(C)cc(NC(=O)C2CCN(C(=O)c3cccs3)CC2)c1
    -5%, -0.1%, ., 6%, -14%, -11, -1.3
CCCn1c(N)c(C(=O)CSc2nnnn2-c2ccc(O)cc2)c(=O)n(C)c1=O
    11%, 0.8%, 0.5%, 0%, -5%, -0.8, -0.5
C=C(C)CSc1nnc(-c2ccc(C)cc2)n1N
    -6%, ., 0.9%, 21%, 16%, -0.2, 1.1
O=C1CC(SC(=NCc2ccc3c(c2)OCO3)Nc2ccccc2)C(=O)N1 (stereo unspecified)
    13%, -2.6%, -2.4%, 11%, 1%, 1.8, -2.1
CS(=O)(=O)N1CCC(Oc2ccccc2C(=O)NC2CCCCCC2)CC1
    11%, -0.8%, 2.4%, 16%, 6%, 0.8, 7.8
COc1ccccc1CNC(=S)Nc1ccc(S(N)(=O)=O)cc1
    -1%, -0.1%, ., ?, 3%, -2.8, -7.0
COc1cc(/C=N/Nc2ccc(Cl)c(C(=O)O)c2)ccc1OC(=O)c1ccc(F)cc1
    -21%, 0.5%, -3.7%, -15%, ?, -1.4, -0.6
Cc1ccnc(NC(=O)COC(=O)C2COc3ccccc3O2)n1 (stereo unspecified)
    0%, 4.7%, -14%, 6%, -17%, 6.3, -1.9
CC[C@@H]1C=C(C(=O)O)[C@H](c2ccc3c(c2)OCO3)N1S(=O)(=O)c1ccc(C)cc1
    ., -0.8%, 1.7%, ., 1%, ., -0.4
Cc1c(CN2CC[C@@H](N3CCN(c4ccccn4)CC3)[C@H](O)C2)[nH]c2ccc(F)cc12
    27%, 0.6%, -0.1%, 7%, 5%, 1.4, ?
